Screening results as filed in PubChem.
Ecoli growth – E. coli growth inhibition | Escherichia coli growth, OD600, 23 h; stronger effect = lower value | OD600 absorbance (test concentration not listed) | 330,000 tested, 0.21% active | AID 1053175;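 active means OD600 absorbance below the run mean of sample wells minus 3.6 SD, in any replicate, cut at about 0.56 in these data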;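 further: stock transfer was 300 nL into about 60 µL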
HNF4A DNA FP – change in binding of human HNF4 alpha to DNA | HNF4a-FITC DNA binding, fluorescence polarization, 1 h | activity change, % at 10 µM | 360,000 tested, 0.3% active | AID 1224865; in the data active means activity change above about 30%, passing the limit was not always enough;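 further: controls were the assay level and a saturating level of protein; the project sought stronger binding though the title names inhibitors; some compounds called inactive have numbers as strong as hits; positive values seem to mean higher polarization but the record does not say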
Target sequence (P41235 whole entry, looked up): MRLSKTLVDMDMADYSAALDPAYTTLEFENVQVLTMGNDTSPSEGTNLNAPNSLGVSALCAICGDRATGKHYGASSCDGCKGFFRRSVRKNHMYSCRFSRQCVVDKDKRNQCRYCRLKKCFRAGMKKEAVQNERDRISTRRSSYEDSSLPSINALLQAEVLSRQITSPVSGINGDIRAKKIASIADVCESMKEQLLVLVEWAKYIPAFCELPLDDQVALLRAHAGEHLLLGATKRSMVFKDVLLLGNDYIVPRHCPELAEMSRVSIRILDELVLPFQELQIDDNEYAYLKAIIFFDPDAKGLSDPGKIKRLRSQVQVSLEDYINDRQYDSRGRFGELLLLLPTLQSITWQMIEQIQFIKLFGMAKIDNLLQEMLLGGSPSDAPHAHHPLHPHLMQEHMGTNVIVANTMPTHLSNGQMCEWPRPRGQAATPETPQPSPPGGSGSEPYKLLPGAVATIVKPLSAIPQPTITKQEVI
UCH37 DUB inh – human UCH37 deubiquitinating enzyme inhibition | Q9Y5K5 | purified proteasome/UCH37, Ub-AMC cleavage fluorescence | inhibition, % (no concentration beside the values) | 330,000 tested, 0.33% active | AID 588478;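 active means mean of two replicates above 20%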;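 further: 0% = compound-free wells with enzyme and 100% = wells lacking proteasome; stock transfer was 100 nL into about 20 µL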
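assay system = human UCH37 enzyme supplied as purified proteasome complex | amount = proteasome at 0.15 nM in the dispensed enzyme solution | schedule = 30 min compound-proteasome preincubation then 25 min substrate reaction, room temperature | measured by = fluorescence, ex 355 nm, em 460 nm | benchmarks = no-proteasome wells (full inhibition) and compound-free wells (no inhibition)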
AF4-AF9 inh – blocks AF4 peptide binding to human AF9. AlphaScreen, biotin-AF4 peptide binding to FLAG-AF9. inhibition, % at 10 µM. 350,000 tested, 0.47% active. AID 651704;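 active means every replicate reaching a set inhibition limit, whatever the replicate mean, cut at about 25% in these data; inconclusive means mean inhibition reaches that limit but some replicates miss it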;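 further: 0% = plate neutral control median and 100% = total signal loss; the record names both 10 and 1 µM as test concentration; the first replicate is given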
Target sequence (P42568 whole entry, looked up): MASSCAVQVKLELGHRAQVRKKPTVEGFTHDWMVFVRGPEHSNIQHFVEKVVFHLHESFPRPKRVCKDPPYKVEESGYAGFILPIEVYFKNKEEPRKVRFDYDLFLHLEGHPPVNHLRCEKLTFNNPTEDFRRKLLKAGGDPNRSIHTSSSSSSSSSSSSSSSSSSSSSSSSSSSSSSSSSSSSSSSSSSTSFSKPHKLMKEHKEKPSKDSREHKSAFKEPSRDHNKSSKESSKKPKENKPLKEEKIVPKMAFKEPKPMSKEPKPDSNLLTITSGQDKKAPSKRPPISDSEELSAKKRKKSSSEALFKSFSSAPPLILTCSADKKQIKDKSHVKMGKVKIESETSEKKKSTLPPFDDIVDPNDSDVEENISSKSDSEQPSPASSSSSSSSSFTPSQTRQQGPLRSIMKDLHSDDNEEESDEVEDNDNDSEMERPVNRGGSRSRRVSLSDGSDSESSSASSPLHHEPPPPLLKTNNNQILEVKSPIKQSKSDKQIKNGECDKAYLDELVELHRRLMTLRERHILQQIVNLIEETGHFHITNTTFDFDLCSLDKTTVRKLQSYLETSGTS
FGF22 binding – binders of recombinant human FGF22 by thermal shift; SYPRO orange fluorescence; percent of sucrose octasulfate shift, DMSO zero; calls only at 9.99 µM; Q9HCT0; 340,000 tested, 1.5% active;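 active means melting point raised past a set limit in the mean and every replicate; inconclusive means no clear call; three in four hits are not shown here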
Vif TR-FRET – inhibitors of Vif binding to APOBEC3G peptide, primary screen, biochemical, TR-FRET, GST-Vif 1-94, biotin-A3G peptide, dose response retest (AID 1117319). TR-FRET GST-Vif / biotin-A3G peptide binding; higher % means a stronger effect; test concentration not given here; strong numbers were not always called active. one-dose inhibition, %; IC50 in µM for titrated hits. 260,000 tested, 0.57% active;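 active means above the screen mean plus three standard deviations and confirmed in dose response; inconclusive means results disagree or hit not tested in dose response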;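 further: Vif residues 1-94 fused to GST binding biotinylated APOBEC3G peptide 110-148; 0% = full assay without inhibitor and 100% = GST in place of GST-Vif; retest series ran down from 100 µM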
RanGTP-Imp inh – inhibitors of RanGTP-importin-beta interaction, primary screen, biochemical, FRET, CFP-Ran, YFP-importin-beta, homogeneous; cell-free CFP-Ran/YFP-importin-beta FRET ratio; inhibition, % (no concentration beside the values); 300,000 tested, 1.1% active; AID 2216;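 active means most replicates above 15%; inconclusive means exactly half above 15%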;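 further: 0% = DMSO wells and 100% = Ran loaded with GDP instead of GTP; wells of about 40 µL received 100 nL stock; the first replicate is given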
* = called active by the depositor; i = inactive; ? = inconclusive; nt = not tested or not shown; & = joins results of further samples. This is a subset; count on the stated rates, not on these rows.

SMILES | Ecoli growth | HNF4A DNA FP | UCH37 DUB inh | AF4-AF9 inh | FGF22 binding | Vif TR-FRET | RanGTP-Imp inh
CN(C)CCN1C(=O)CCC2(C)C1=CCC1C2CCC2(C)C1CCC2(C)O (stereo unspecified) | 0.667 | 4.5 | -0.5 | -1.9 | i | 4.0% | nt
COc1ccc(NC(=O)NC2CCCc3ccccc32)cc1 (stereo unspecified) | 0.753 | 1.3 | 0.8 | 1.9 | i | nt | -1.9
COC(=O)Cn1c(O)c(N=NC(=O)CNC(=O)COc2cccc(C)c2)c2ccccc21 | 0.703 | 2.4 | 6.5 | -0.1 | i | 3.0% | -3.3
COCCn1nnnc1C(c1ccccc1)N1CCN(C)CC1 (stereo unspecified) | 0.733 | -1.1 | 2.3 | nt | nt | -1.8% | 0.7
CC(=O)Nc1ccccc1OC(C)C(=O)N1CC(C)CC(C)C1 (stereo unspecified) | 0.677 | 3.1 | 1.9 | -0.1 | i | nt | 8.2
COc1cc(S(=O)(=O)N2CCCCC2)c(OC)cc1Br | 0.656 | 0.2 | 3.1 | -0.1 | i | -3.0% | 4.1
CSc1ccc(S(=O)(=O)N2CCC(C(=O)NC3CC3)CC2)cc1 | 0.708 | -1.2 | 1.2 | -2.6 | i | nt | 2.1
Nc1ccc(C(=O)OCCc2ccccc2)cc1 | 0.685 | -1.6 | 1.0 | -1.4 | i | nt | 7.1
Cc1c(NC(=O)c2ccc(COc3ccc4ccccc4c3)o2)c(=O)n(-c2ccccc2)n1C | 0.644 | 4.3 | 0.2 | 2.9 | i | -0.7% | 2.6
Cc1cc(C(=O)OC(C)C(=O)Nc2cccc(S(=O)(=O)N3CCOCC3)c2)c(C)o1 (stereo unspecified) | 0.719 | -0.9 | 2.2 | nt | nt | 19.1% | -0.7
CCOC(=O)N1CCN(CCC(=O)Nc2ccc(Br)c(C)c2)CC1 | 0.674 | -3.0 | 4.5 | 1.5 | i | -10.1% | 2.3
Cc1noc(C)c1C(=O)N1CCC2(CC1)Oc1ccc(F)cc1C(=O)C21CC(c2ccc(Cl)cc2)=NO1 (stereo unspecified) | 0.669 | -7.1 | 4.7 | -2.1 | i | -3.2% | 4.1
CSc1nc2n(n1)C(c1cc(Br)ccc1F)C(C(=O)N(C)C)=C(C)N2 (stereo unspecified) | 0.671 | 3.9 | -0.1 | nt | nt | -1.9% | 2.7
CCOC(=O)NC(Nc1nnc(SCC)s1)(C(F)(F)F)C(F)(F)F | 0.673 | -0.3 | 0.4 | nt | nt | -0.4% | -1.4
C[C@@H]1C=C[C@](Cc2ccccc2)(C(=O)NCCc2c[nH]c3ccccc23)N1C(=O)c1ccccc1 | nt | -0.9 | 0.6 | 5.0 | i | 4.6% | -1.0
COc1ccc(C(OC(=O)c2ccco2)C(=O)NCc2ccc(C)cc2)cc1 (stereo unspecified) | 0.737 | 1.7 | 0.5 | nt | nt | -2.6% | 3.6
Cc1ccc(S(=O)(=O)c2nnn3c2nc(NC2CCN(Cc4ccccc4)CC2)c2ccccc23)cc1C | 0.7 | 7.9 | -146.0 | nt | nt | nt | 4.0
CCCCn1c(N)c(N(CCOC)C(=O)c2ccc(Cl)c(S(=O)(=O)N3CCCCC3)c2)c(=O)[nH]c1=O | 0.672 | -1.9 | 3.9 | 3.0 | i | -3.6% | -0.6
CN1CCN(S(=O)(=O)c2cccc(C(=O)Oc3ccccc3Cl)c2)CC1 | 0.736 | 3.9 | -1.0 | 2.9 | i | -6.5% | 1.2
OCC1(Cc2ccccc2)CCCN(Cc2cnn(-c3ccccc3)c2)C1 (stereo unspecified) | 0.659 | 3.3 | 3.6 | 1.2 | i | 21.9% | -0.3
COc1ccccc1N1CCN(C(=O)c2ccc(C(C)(C)C)cc2)CC1 | 0.708 | 2.1 | 2.9 | nt | nt | 8.5% | 4.2
Cc1cccc(CSc2ccc(-c3ccco3)nn2)c1 | 0.701 | 1.3 | -2.4 | 0.1 | i | nt | -1.3
CNC(=O)c1ccsc1NC(=O)CCS(=O)(=O)c1ccc(F)cc1 | 0.629 | 8.3 | 2.4 | -0.3 | i | -4.2% | -2.8
CC(C)(C)Sc1ccc(/C=N/O)cc1[N+](=O)[O-] | nt | -0.9 | nt | 3.8 | i | 0.5% | -0.9
CCOC(=O)N1CCN(C(=O)c2ccc3c(c2)N(CC)CCS3)CC1 | 0.735 | 3.8 | -26.8 | -10.7 | i | 2.4% | 4.7
SMILES | Ecoli growth | HNF4A DNA FP | UCH37 DUB inh | AF4-AF9 inh | FGF22 binding | Vif TR-FRET | RanGTP-Imp inh
OC1(c2ccc(Br)cc2)CN(c2ccccc2)C2=[N+]1CCS2 (stereo unspecified) | 0.691 | -2.2 | 1.4 | 2.7 | i | -0.9% | 0.4
CCOC(=O)C1=C(C)NC(=O)N(C(C)=O)C1c1ccc(Cl)cc1 (stereo unspecified) | 0.742 | -2.2 | 0.6 | nt | nt | ? | -5.8
COc1ccc(NC(=O)CSc2nn3c(=O)c(C)nnc3s2)cc1 | 0.698 | 3.2 | 11.6 | -1.4 | i | 4.2% | ?
Cc1ccc(C(=O)NNC(=O)COc2ccc(Cl)cc2C)o1 | 0.681 | 0.4 | -0.8 | -7.1 | i | -11.4% | nt
O=C1CNc2cc(Cl)ccc2N1 | nt | 3.0 | nt | -2.1 | i | 10.8% | nt
COc1ccc2cc(C(=O)Nc3ccc(F)cc3)sc(=O)c2c1OC | nt | -1.3 | nt | nt | nt | -0.4% | 5.5
O=C(/C=C/c1cccc(Cl)c1)c1nc2ccccc2[nH]1 | 0.644 | 1.7 | 1.2 | nt | nt | -0.4% | -0.9
COc1ccc(Oc2ccc(C(F)(F)F)cc2NC(=O)c2ccc(OC)cc2)cc1 | 0.657 | 2.6 | 5.0 | -6.3 | i | -13.5% | 0.8
Cc1ccnc(NC(=O)c2ccc(NS(=O)(=O)/C=C/c3ccccc3)cc2)c1 | 0.694 | 2.3 | 5.2 | 0.9 | nt | -4.1% | 0.0
CCOc1ccc(C(=O)NCC(=O)N2CCC3(CC2)NCCc2[nH]cnc23)cc1 | 0.71 | -2.0 | 2.2 | -32.4 | i | nt | 0.6
C=CCNCCCCOc1ccccc1-c1ccccc1 | 0.624 | 2.9 | 2.7 | nt | nt | -10.0% | 1.4
CCN(CC)c1ccc(/C=N/NC(=O)c2cc(C)nc3ccccc23)cc1 | nt | -2.1 | nt | 8.1 | i | 1.1% | -3.6
S=c1[nH]nc(-c2cccs2)n1/N=C/c1cn(-c2ccccc2)nc1-c1cccs1 | nt | 0.8 | nt | 0.8 | i | -2.3% | 5.7
CCOC(=O)c1c(NC(=O)CN2CCN(C)CC2)sc(C(=O)Nc2ccccc2)c1C | 0.656 | 2.0 | 0.6 | 10.7 | i | -10.5% | 7.2
CCNS(=O)(=O)c1cc(OC)ccc1OC | 0.715 | 0.2 | -1.1 | nt | nt | -5.3% | -3.3
O=C(Nc1ccc(N2CCCC2)cc1)C(c1ccccc1)c1ccccc1 | 0.713 | 5.9 | 1.9 | nt | nt | -0.7% | -3.6
COc1cccc(C(=O)N2CCC[C@H]2C(=O)N2CCC[C@H]2C(=O)NCc2ccc(F)cc2F)c1 | nt | -0.1 | nt | -6.1 | i | nt | nt
COc1ccc(OC)c(NC(=O)C2CCN(c3cc(-c4ccccc4)nc4ncnn34)CC2)c1 | 0.707 | -1.7 | -1.5 | nt | nt | -20.4%&-23.1% | 2.8
Cn1c(=O)c(Oc2ccc(Cl)cc2)c(O)c2ccccc21 | 0.681 | 2.1 | 0.5 | -3.5 | i | 2.5% | -3.0
CCOc1ccc(C)cc1-n1nc2ccccc2n1 | 0.717 | -2.1 | -0.2 | nt | nt | 4.0% | 3.5
CCCNC(=O)NC(=O)CSc1nc2cc(C(=O)OC)ccc2c(=O)n1-c1ccccc1 | 0.829 | -0.6 | -3.1 | nt | nt | 1.6% | -1.2
O=C(CC1C(=O)NCCN1C(=O)c1ccc([N+](=O)[O-])cc1)Nc1ccc(F)cc1 (stereo unspecified) | 0.611 | -3.3 | 0.5 | -6.5 | i | -3.4% | -0.9
COc1ccccc1-c1noc2c1C(=O)N(Cc1cn(-c3ccc(Cl)cc3)nn1)CC2 | nt | -2.9 | nt | 1.4 | i | nt | nt
COc1ccc(C=O)cc1COc1ccccc1F | 0.598 | -0.2 | 2.2 | nt | nt | 23.4% | 2.0
Brc1ccc(-c2noc(C3CCCCC3)n2)cc1 | 0.712 | -0.7 | 1.0 | -4.0 | i | 5.2% | 4.6

Compounds from the list above containing a CF3 group (two):
SMILES | Ecoli growth | HNF4A DNA FP | UCH37 DUB inh | AF4-AF9 inh | FGF22 binding | Vif TR-FRET | RanGTP-Imp inh
CCOC(=O)NC(Nc1nnc(SCC)s1)(C(F)(F)F)C(F)(F)F | 0.673 | -0.3 | 0.4 | nt | nt | -0.4% | -1.4
COc1ccc(Oc2ccc(C(F)(F)F)cc2NC(=O)c2ccc(OC)cc2)cc1 | 0.657 | 2.6 | 5.0 | -6.3 | i | -13.5% | 0.8

Additional structures:
SMILES | Ecoli growth | HNF4A DNA FP | UCH37 DUB inh | AF4-AF9 inh | FGF22 binding | Vif TR-FRET | RanGTP-Imp inh
COc1ccc(NC(=O)C2CCN(C(=O)c3ccccc3)CC2)c(OC)c1 | 0.674 | 3.5 | 1.2 | -11.0 | i | 21.5% | nt
O=C(COC(=O)c1ccc(O)cc1O)Nc1ncc(Cl)cc1Cl | 0.661 | -7.3 | 2.6 | -4.9 | i | 9.7% | -2.1
CC(=O)N1c2ccc(S(=O)(=O)N3CCC(C(=O)N4CCN(c5ccccc5F)CC4)CC3)cc2CC1C (stereo unspecified) | 0.659 | -4.6 | 0.7 | 1.9 | i | nt | 3.9
COc1ccc(C(c2nnnn2C2CCCCC2)N2CCN(c3ccc(OC)cc3)CC2)cc1 (stereo unspecified) | 0.734 | 3.2 | 0.7 | nt | nt | 0.9% | 3.2
Cc1nc(N2CCN(C(c3ccccc3)c3ccccc3)CC2)[nH]c(=O)c1C | 0.72 | 1.3 | 6.3 | nt | nt | -7.5% | 1.9
COc1ccccc1C(=O)N/C(=C\c1ccc(Br)cc1)C(=O)NCCC(=O)O | 0.692 | 2.9 | 2.3 | 0.6 | i | -1.9% | -3.3
Cc1nn(C)c(Oc2ccc(Cl)cc2)c1C=O | 0.624 | 0.1 | 1.2 | nt | nt | -3.5% | -4.1
Cc1ccc(NC(=O)CCC(=O)c2cccs2)c(O)c1 | 0.682 | 2.1 | 2.4 | 0.8 | i | 9.6% | 1.1
O=C(c1ccc(F)c(S(=O)(=O)N2CCOCC2)c1)N1CCc2ccccc21 | 0.713 | -0.6 | 0.7 | 3.7 | i | -2.3% | 1.2
Cc1ccc([N+](=O)[O-])cc1NC(=O)CSc1nncc2ccccc12 | 0.683 | 1.2 | 2.4 | -3.1 | i | nt | -3.6
CCN1C(=O)[C@H]2[C@H]3CN=C(SCc4ccc(C(=O)OC)cc4)N3[C@@](C)(C(=O)OC)[C@H]2C1=O | 0.716 | -2.6 | 1.1 | -1.3 | i | -4.6% | nt
COC(=O)c1c(NC(=O)C2CC2)sc2c1CCCC2 | 0.703 | 4.6 | 1.6 | 3.0 | i | -3.8% | -3.1
COc1ccc(C2c3cc(OC)c(OC)cc3CCN2C(=O)c2ccccc2Br)cc1OC (stereo unspecified) | 0.612 | -3.1 | 4.7 | 8.1 | i | nt | 0.0
Cc1ccc2c(c1)N(CC(=O)Nc1ccccc1F)C(=O)C(C)O2 (stereo unspecified) | nt | 1.1 | nt | 2.3 | i | 0.8% | nt
CCCCc1cc(=O)oc2cc(C)cc(OCC(=O)NCC3CCC(C(=O)O)CC3)c12 (stereo unspecified) | 0.705 | -0.6 | -107.0 | 0.4 | i | nt | -0.1
CCc1nc2c(OCc3ccccc3)cccn2c1N(C)C(=O)c1ccc(OC)cc1 | nt | -5.8 | nt | -2.1 | i | nt | nt
